VACV mCherry inh: inhibitors of vaccinia virus infection (mCherry reporter signal); Vaccinia virus mCherry reporter infection, fluorescence; about a quarter of the inactives have no number; Potency, µM (doses to about 36.5 µM), inactives show at the highest dose activity change, negative = inhibition, hits mostly inhibitors; 310,000 compounds, 0.63% hits; AID 720579; active = well fitted inhibition curve with a large enough effect; inconclusive = small, poorly fitted or top-dose-only effect; inactive = no such curve, though single readings can be large or run the other way; tested in A549 cells; note: nearly all actives have a fitted effect of over 35% in size; inactives centre near -10
Vaccinia Venus: vaccinia inhibition (Venus reporter); Potency, µM (top dose mostly 36.5 µM), inactives show at the top dose activity change, negative = inhibition, actives largely listed as inhibitors; AID 720580; Vaccinia virus Venus reporter expression, fluorescence; 330,000 compounds, 0.46% hits; active means well fitted inhibition curve with a large enough effect; inconclusive means small, poorly fitted or top-dose-only effect; inactive means no such curve, though single readings can be large or run the other way; tested in A549 cells; note: nearly all actives have a fitted effect of over 30% in size; inactives centre near -10
Numbers without * were called inactive; i = inactive; ? = inconclusive; nt = not tested or not shown; & = joins results of further samples; [ ] = remark or other dose. % is set by controls: 0 for no effect and ±100 for the full control effect; potency is the fitted concentration of half-maximal effect.

SMILES	VACV mCherry inh	Vaccinia Venus
CN(C)C(=O)CCc1ccc2c3c([nH]c2c1)[C@]1(C)[C@@H](C(=O)N2CCOCC2)C[C@H](CC(=O)NCc2ccco2)C(=O)N1CC3	-1%	-27%
N#Cc1ccc(NC(=O)CN2CCCC2)cc1Cl	-13%	-12%
O=S1(=O)CC(N2CCCCC2)CN1Cc1cn(Cc2ccc(C(F)(F)F)cc2)nn1 (stereo unspecified)	7%	-7%
COc1cccc(NC(=O)C2CCN(c3cc(C)nc4c(-c5ccc(Cl)cc5)c(C)nn34)CC2)c1	2%	-6%
COc1cccc(CNC(=O)CN2C(=O)c3ccccc3S2(=O)=O)c1	-11%	-8%
O=C(NC1CCCC1)c1ccc(COCC(F)(F)F)o1	i	-11%
O=C1NC(=S)N/C1=C/c1cccn1-c1ccc([N+](=O)[O-])cc1	?	?
O=C(CN1C(=O)COc2ccccc21)NCCCN1CCN(Cc2ccccc2)CC1	i	2%
COc1cc(NC(=O)COC(=O)C2CC2)c(C)cc1[N+](=O)[O-]	i	-7%
Cc1ccc(S(=O)(=O)N2CCCCC2CCNC(=O)C(=O)NCC2CCCO2)cc1 (stereo unspecified)	i	-16%
COc1ccc(C2c3[nH]c4ccccc4c3C[C@H]3C(=O)N(CCCO)CC(=O)N23)cc1OC (stereo partly specified)	-20%	-6%
CC(CCc1ccccc1)NC(=O)CCNC(=O)Cn1ccc2ccccc2c1=O (stereo unspecified)	-19%	-3%

Complete entries, quoted from the list. Order of screens: VACV mCherry inh, Vaccinia Venus
COc1cccc(CNC(=O)CN2C(=O)c3ccccc3S2(=O)=O)c1 reads -11%, -8%
N#Cc1ccc(NC(=O)CN2CCCC2)cc1Cl reads -13%, -12%

Remaining list, next part
SMILES	VACV mCherry inh	Vaccinia Venus
COc1ccc(-c2nc3ccccc3c(=O)n2CCOc2ccc(C)cc2C)cc1	-18%	-2%
O=C(CSc1nnc(-c2cccc(F)c2)o1)NC1CCCC1	-29%	-25%
Cc1cnc(C(=O)OCC(=O)NC(=O)c2ccccc2)cn1	-10%	2%
O=C(C1CCC(CNS(=O)(=O)c2cccs2)CC1)N1CCCCC1 (stereo unspecified)	nt	16%
CC(NC(=O)CCN1C(=O)c2ccccc2C1=O)c1ccc2c(c1)CCCC2 (stereo unspecified)	0%	-13%
CN1C(=O)C(=Cc2sc(=O)n(-c3ccccc3)c2N(C)C)C(=O)N(C)C1=O	-7%	27%
O=c1c(Cl)c(N2CCN(c3ccc(F)cc3)CC2)cnn1C12CC3CC(CC(C3)C1)C2	?	-11%
Cc1cccc(-c2noc(-c3c(C)noc3C)n2)c1	-6%	-5%
COc1cc2c(cc1OC)CN(C(=O)c1ccc(S(=O)(=O)N(C)c3ccccc3)cc1)CC2	-6%	-21%
CNC(=O)c1ccc(N(Cc2ccccc2C)S(C)(=O)=O)cc1	-8%	-14%
Cc1cc(/C=C2\C(=O)NC(=O)N(c3ccc(F)cc3)C2=O)c(C)n1-c1cccc(C(=O)O)c1	i	9%
Cc1ccc(NC(=O)CCC(=O)NNC(=O)Nc2cccc(Cl)c2)c(C)c1	-12%	-12%
COc1cccc2c1Oc1nc(-c3ccccc3)nc(SCC(=O)Nc3ccccc3)c1C2	-9%	1%
O=C1c2ccccc2C(O)(c2ccccc2)N1c1ccc([N+](=O)[O-])cc1Cl (stereo unspecified)	-11%	-2%
Cc1ccc(C(=O)Nc2cccc(-c3nc(CNC(=O)[C@@H]4C[C@@H](C)NC(=S)N4)c(C)o3)c2)s1	-22%	-18%
CS(=O)(=O)c1cccc(-c2nnc(NC(=O)c3ccc(S(=O)(=O)N4CCCC4)cc3)o2)c1	i	-7%
COc1ccccc1N(CC(=O)NCCN1CCOCC1)S(=O)(=O)c1ccc(C)cc1	i	-6%
CC(C)CCOc1ccc(Cl)cc1CN1CCOCC1	i	-11%
Cc1cn([C@H]2C[C@H](O)[C@@H](CNCc3ccc(N4CCN(C)CC4)cc3F)O2)c(=O)[nH]c1=O	-14%	5%
COc1cc2c(cc1OC)C(Nc1ccccc1)=NC(C)(C)C2	?	-18%
CCC(=O)Nc1cc(C(=O)N2CCC3(CC2)OCCO3)ccc1S(=O)(=O)c1ccc(C)cc1	nt	-2%
COc1ccnc(CSC(N)=Nc2ccccc2OC)c1	i	-12%
Cc1cc(O)c(-c2cc(C(=O)Nc3sc4c(c3C(=O)NCc3ccco3)CCC4)[nH]n2)cc1C	?	0%
COc1ccc(OC)c(CNC(=O)CCNC(=O)Cn2ccc3ccccc3c2=O)c1	i	-9%

Compounds from the list above that have fluorine, in the order listed:
SMILES	VACV mCherry inh	Vaccinia Venus
O=S1(=O)CC(N2CCCCC2)CN1Cc1cn(Cc2ccc(C(F)(F)F)cc2)nn1 (stereo unspecified)	7%	-7%
O=C(NC1CCCC1)c1ccc(COCC(F)(F)F)o1	i	-11%
O=C(CSc1nnc(-c2cccc(F)c2)o1)NC1CCCC1	-29%	-25%
O=c1c(Cl)c(N2CCN(c3ccc(F)cc3)CC2)cnn1C12CC3CC(CC(C3)C1)C2	?	-11%
Cc1cc(/C=C2\C(=O)NC(=O)N(c3ccc(F)cc3)C2=O)c(C)n1-c1cccc(C(=O)O)c1	i	9%
Cc1cn([C@H]2C[C@H](O)[C@@H](CNCc3ccc(N4CCN(C)CC4)cc3F)O2)c(=O)[nH]c1=O	-14%	5%

(more compounds)
SMILES	VACV mCherry inh	Vaccinia Venus
CC12CN3CC(C)(CN(C1)C3c1cc(Br)ccc1O)C2=O (stereo unspecified)	-16%	-11%
CCOc1nc(Nc2cc(Cl)ccc2OC)nc(OCC)n1	nt	-3%
Cc1ccc(-c2nn3c(=O)cc(CN4CCN(C(=O)/C=C/c5ccccc5)CC4)nc3s2)cc1	-8%	-7%
Cc1ccc(C)c(NC(=O)C(CC(C)C)N2Cc3ccccc3C2=O)c1 (stereo unspecified)	i	-17%
Cc1ccc(NC(=O)COc2cccc3c2OC(C)(C)C3)c(O)c1	?	-24%
CCC(c1nnnn1Cc1ccco1)N(CCc1ccccc1)Cc1cc2cccc(C)c2[nH]c1=O (stereo unspecified)	nt	-15%
CCCNC(=O)c1cc(C2CCCCN2C(=O)c2cc(OC)c(C)c(OC)c2)on1 (stereo unspecified)	i	-2%
COCCCNC(=O)C(C#N)c1nc2ccccc2nc1N1CCN(Cc2ccccc2)CC1 (stereo unspecified)	nt	-11%
COc1cc(/C=N/Nc2nc(C)nc3c2cnn3-c2ccccc2)ccc1O	?	?
Cc1ccc(-n2nc(C)c3c(C)cc(=O)n(CC(=O)Nc4cc(Cl)ccc4C)c32)cc1	-13%	-5%
Cc1ccc(-n2c(N)c(C(=O)Nc3c(C)n(C)n(-c4ccccc4)c3=O)c3nc4ccccc4nc32)cc1	-27%	-9%
Cc1ncn(C23CC4CC(CC(O)(C4)C2)C3)n1	-3%	-2%

Some of the entries so far, comma-delimited:
Molecule,VACV mCherry inh,Vaccinia Venus
CCC(c1nnnn1Cc1ccco1)N(CCc1ccccc1)Cc1cc2cccc(C)c2[nH]c1=O (stereo unspecified),nt,-15%
Cc1ccc(NC(=O)COc2cccc3c2OC(C)(C)C3)c(O)c1,?,-24%
CCOc1nc(Nc2cc(Cl)ccc2OC)nc(OCC)n1,nt,-3%

(cont.)
SMILES	VACV mCherry inh	Vaccinia Venus
Cc1ccc(C)c(NC(=O)C2CC(=O)N(C3CCCCC3)C2)c1 (stereo unspecified)	-10%	2%
CC1CCCCN1C(=O)Cn1cc(C=C2C(=O)N(C)C(=O)N(C)C2=O)c2ccccc21 (stereo unspecified)	i	-10%
COc1cccc(C2C(C(=O)Nc3ccc(C)cc3C)=C(C)Nc3c(C(=O)Nc4ccccc4)cnn32)c1 (stereo unspecified)	-23%	-19%
COCCCNC1=C(C#N)C(=O)NC(c2cccs2)S1 (stereo unspecified)	i	-4%
COC(=O)C1=C(C)N(C)C(C)=C(C(=O)OC)C1c1ccsc1	nt	-32%
COc1ccc(Cn2c(CO)cnc2SCc2ccc(F)cc2)cc1	-20%	-22%
Cc1cc(C)cc(-n2c(SCC(=O)N3CCCCCC3)nc3c([nH]c4ccccc43)c2=O)c1	-7%	-5%
COc1ccc(NC(=O)c2ccc(CN3CCN(c4ccccc4)CC3)cc2)cc1OC	nt	-22%
O=C(O)CCn1c(=O)oc2cc(S(=O)(=O)N3CCCC3)ccc21	-10%	-7%
CCN(CC)CCCNC(=O)c1cn(CCOC)c(=O)c2c1c1ccccc1n2C	-3%	-16%
Cc1cccnc1NC(=O)c1ccccc1-c1ccccc1C(=O)Nc1ncccc1C	i	2%
COc1ccc(OC)c(C2CC(=O)N3CN(c4ccccc4)CSC3=C2C#N)c1 (stereo unspecified)	i	-4%
COc1ccccc1CN1CC(C(=O)N2CCCCO2)CCC1=O (stereo unspecified)	-14%	-3%
CCOC(=O)C1=C(C)Nc2sc(C(=O)c3ccc(C)cc3)c(N)c2C1c1ccc(C(=O)OC)cc1 (stereo unspecified)	-8%	-9%
CCCCOc1ccc(C(=O)NCc2ccccn2)cc1	nt	-4%
CC(=O)OC1CC2(C)C(=O)CCC2C2CCc3cc(O)ccc3C12 (stereo unspecified)	-10%	-8%
C=CC[C@@H](CC(=O)N[C@@H](CO)Cc1ccccc1)C(=O)N[C@H](C)COC(=O)[C@@H](CC=C)Cc1ccc(F)cc1	i	-7%
CC1CC(C)CN(C(C(=O)NC2CCCCC2)c2ccnc3ccccc23)C1 (stereo unspecified)	1%	-5%
Cc1cc(C)c(C#N)c(SCCS(=O)(=O)c2ccc(Cl)cc2)n1	4.5µM*	?
Cc1ccc(C(=O)Nc2cc3nn(-c4ccccc4)nc3cc2Cl)c(C)c1	8%	1%
N#Cc1ccc(-c2cccs2)nc1SCc1c(F)cccc1Cl	-8%	-25%
CCCCCCn1c(O)c(C(C)=NC)c(=O)[nH]c1=O	-15%	-10%
COc1ccc(NC(C)=O)cc1NC(C)C(=O)Nc1cc(C(F)(F)F)ccc1N1CCOCC1 (stereo unspecified)	-18%	-12%
Cc1ccc2[nH]c(CSc3nnc(C)s3)cc(=O)c2c1	5%	-6%
Nc1nc(N)nc(-c2cccc(Cl)c2Cl)n1	i	-1%
Nc1nonc1-n1nnc(C(=O)N/N=C/c2cccc(Cl)c2)c1CSc1ccc(Cl)cc1	i	-27%
O=C(COC(=O)Cc1ccc(F)cc1)NC(=O)c1ccccc1	i	-14%
O=C(c1ccco1)N1CCN(c2nc(C3CC3)nc3c2nnn3Cc2ccccc2Cl)CC1	?	?
COCCCN(C(=O)c1cc(Cl)nc2ccccc12)c1c(N)n(Cc2ccccc2)c(=O)[nH]c1=O	-13%	-12%
COc1ccc(C(=O)N=c2sc3ccccc3n2C)cc1OC	i	-8%
CCNc1ccc(C(=O)OCC)cc1NC(=O)c1cc(S(=O)(=O)N2CCOCC2)ccc1C	i	-21%
CCN(C[C@H]1N[C@@](Cc2ccccc2)(C(=O)OC)[C@H]2C(=O)N(C)C(=O)[C@@H]12)S(=O)(=O)c1ccc(OC(F)(F)F)cc1	-14%	-18%
Cc1noc(C)c1S(=O)(=O)N1CCC(C(=O)c2ccccc2)CC1	-8%	-9%
COc1nc(N2CCOCC2)nc(C)c1[N+](=O)[O-]	-11%	-17%
CCC(C)[C@H]1CN=C(N)N1CCCc1cc(OC)c(OC)c(OC)c1 (stereo partly specified)	i	1%
O=C(COc1ccc2ccccc2c1)Nc1ccc(Br)cc1C(=O)O	i	-27%
C/C(N)=C(/C#N)C(=O)CSc1nnc(-c2ccc(OC(F)F)cc2)o1	-25%	-29%&-10%
COc1ccc(C(=O)N[C@H](C(=O)NCCCSc2ccccc2)C(C)C)cc1	-3%	-12%
COc1ccc(NC2CC(=O)N(c3cc([N+](=O)[O-])ccc3C)C2=O)cc1 (stereo unspecified)	3%	-3%
CCOc1ccccc1CNC(=O)C1CCN(C2=NS(=O)(=O)C(c3ccc(C)c(C)c3)=C2C)CC1	-3%	2%
N#C/C(=C\c1ccc(O)c(O)c1)C(=O)NCc1ccccc1	-8%&-11%	-12%&14%&-12%
CN(C(=O)c1ccccc1)C1c2c(ccc3ccccc23)OCC1CO (stereo unspecified)	-15%	-26%
O=C(CCn1c(=O)c2cccn2c2ccc(F)cc21)NCc1cccc(F)c1	-14%[7.34 µM]	-7%[7.34 µM]
O=C(Nc1nccs1)c1cccc(NC(=O)C2CC2)c1	-9%	-8%
COc1ccc2c(c1)CCc1sc(NC(=O)c3ccc(Br)cc3)nc1-2	-10%	-15%
Cc1ccccc1NC(=O)[C@H](CSCc1ccccc1)N1Cc2ccccc2C1=O	-11%	-4%
O=C(NC(=S)N1CCc2ccccc21)C1CCC1	4%	-2%
Cc1cc(NS(=O)(=O)c2ccc(NC(=O)C(C(C)C)N3C(=O)c4ccccc4C3=O)cc2)nc(C)n1 (stereo unspecified)	-10%	-4%
CCN(C(=O)c1cn(CC)c(=O)c2cc(OC)c(OC)cc12)c1ccccc1C	-24%	-18%
O=[N+]([O-])c1cc(S(=O)(=O)N2CCCC2)ccc1NN=C1CCCC1	-23%	-12%
Cc1cccc(C)c1OCCOC(=O)c1n[nH]c2ccccc12	i	-18%
CCN(CCCNC(=O)CN(C)S(=O)(=O)c1cccc2nsnc12)c1cccc(C)c1	i	-17%
CCOc1ccc(NC(=O)Cn2c(CCC(=O)O)ccc2-c2ccc(C)cc2)cc1	5%	-1%
CC1(C)CC(NCc2ccncc2)CC(C)(C)N1	-10%	-12%
O=C(NC1CCCCC1)C(C1CC1)n1c(=O)c(-c2cc3ccccc3[nH]2)nc2ccccc21 (stereo unspecified)	-25%	-28%
CC1CCC(=O)N(CCC#N)CC1 (stereo unspecified)	-24%	-13%&-8%
CCOC(=O)c1ccc(NC(=O)Nc2ccc(Cl)cn2)cc1	i	-13%

High-throughput results deposited in PubChem by National Center for Advancing Translational Sciences (NCATS).
